CapD inh – Bacillus anthracis CapD inhibitors, primary screen, biochemical, fluorescence intensity; purified CapD enzyme, fluorescence intensity read-out; active compounds read low; some hits fall short of the stated cut; 140,000 compounds, 0.23% hits; CapD gamma-glutamyltranspeptidase (Bacillus anthracis Ames Ancestor); z-score (no concentration beside the values);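 active = z-score under -4 in either of two replicates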;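 also: stock transfer was 100 nL into about 40 µL; score is relative to mean and spread of the plate; one replicate is shown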
AID504770 – growth inhibition of E. coli YBA685, primary screen, V. cholerae RctB inhibitors; z-score (concentration not given with the values); AID 504770, 2011; 130,000 compounds, 0.27% hits; E. coli YBA685 rctB-dependent plasmid, OD600 growth, 3 h; active compounds read low;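 active = z-score under -2 on both plates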;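 also: wells of about 30 µL received 100 nL stock; score is relative to mean and SD of the test wells; the first replicate is given; strong numbers were not always called active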
Starred values were filed as active, the others as inactive; nt = no result given; & = joins results of further samples.

structure	CapD inh	AID504770
O=C(Oc1cccnc1)C1c2ccccc2Oc2ccccc21	1.1	-0.95
O=C(CSc1nnc(Cc2ccccc2)o1)c1ccccc1	nt	-0.35
N#CCSc1nc2nccnc2c(=O)n1Cc1ccccc1Cl	0.34	-0.6
Cc1ccc(-c2noc(CCCC(=O)NCC3CCCO3)n2)cc1 (stereo unspecified)	-1	-0.45
O=C(CCSc1ccccc1)Nc1nc(-c2cccnc2)cs1	0.5	0.8
CCCCCc1ccc2c(c1)Cc1cc(C(C)=O)ccc1-2	1.1	nt
CCNc1ccc(-c2nc3ccccc3[nH]2)cn1	nt	-1.2
CC1CCc2[nH]c(=S)nc(C(F)(F)F)c2C1 (stereo unspecified)	7.2	-0.4
c1nc(N2CCCCCC2)c2ccsc2n1	0.29	-0.05
CC(Sc1ccccc1)C(=O)NN=C1CCCC1 (stereo unspecified)	nt	0.3

structure	CapD inh	AID504770
COc1ccc(OCC(CN(C)C2=NS(=O)(=O)c3ccccc32)OC(=O)c2ccc(C)cc2)cc1 (stereo unspecified)	-0.16	nt
COc1ccc(C2=NN3C(C2)c2cc(Cl)ccc2OC3c2ccc(F)c(F)c2)cc1 (stereo unspecified)	0.68	nt
Cc1ccc(-c2ncns2)cc1	1.3	nt
COc1ccc2c(Sc3ccccc3)c(C(=O)N3CCCCC3)[nH]c2c1	0.04	-0.05
Cc1ccc(CCOC(=O)N2CCC(C(N)=O)CC2)cc1	-1.4	nt
CC(Sc1ccc(Cl)cc1)C(=O)NCc1ccncc1 (stereo unspecified)	2	0
CCOC(=O)c1sc(N)c(C#N)c1COC(=O)C1CSC2(C)CCC(=O)N12 (stereo unspecified)	nt	-0.3
O=C(O)c1cncc(C(=O)O)c1	0.59	0.95
CSc1ncccc1C(=O)Nc1ccc(S(C)(=O)=O)cc1	nt	0.2
O=C(NCCc1ccccc1)c1ccc2c(=O)n3nc(Nc4ccccc4)sc3nc2c1	-0.3	0

In a second layout: five of the compounds above.
Results follow in this order: CapD inh, AID504770
CCOC(=O)c1sc(N)c(C#N)c1COC(=O)C1CSC2(C)CCC(=O)N12 (stereo unspecified)
  nt, -0.3
COc1ccc2c(Sc3ccccc3)c(C(=O)N3CCCCC3)[nH]c2c1
  0.04, -0.05
O=C(NCCc1ccccc1)c1ccc2c(=O)n3nc(Nc4ccccc4)sc3nc2c1
  -0.3, 0
COc1ccc(C2=NN3C(C2)c2cc(Cl)ccc2OC3c2ccc(F)c(F)c2)cc1 (stereo unspecified)
  0.68, nt
CSc1ncccc1C(=O)Nc1ccc(S(C)(=O)=O)cc1
  nt, 0.2

Further structures follow:
structure	CapD inh	AID504770
O=C(C1=C(O)C(=O)N(Cc2cccnc2)C1c1ccncc1)c1cccs1 (stereo unspecified)	-0.51	-0.45
N#Cc1ccc(NC(=O)COC(=O)/C=C/c2cn(-c3ccccc3)nc2-c2cc3ccccc3o2)cc1	nt	-0.3
O=P(O)(Cc1ccccc1)Cc1ccccc1	-0.26	-0.8
Cc1ccc(NC(=O)c2cccs2)cc1	-0.65	1.5
O=C(O)c1cccn1-c1ccc(Br)cc1	0.39	0.05
Cc1cccc(N(C)C(=O)c2cc(S(=O)(=O)N3CCc4ccccc43)cn2C)c1	-0.48	0.5
CCN(CC)C(=O)c1sc(NC(=S)Nn2cnnc2)c(C(=O)OC)c1C	-3.1	1.4
O=C(O)CCC(=O)Oc1ccccc1	-0.62	-0.3
CCC(C)NS(=O)(=O)c1cc(-c2cc(C)no2)ccc1C(C)C (stereo unspecified)	-0.11	-1.4
Cc1cccc(CC(CC(=O)O)C(=O)N(C)C2CCN(Cc3ccccc3OCc3ccccc3)C2)c1 (stereo unspecified)	-0.98	nt

structure	CapD inh	AID504770
O=c1c2c3c(sc2n(Cc2cccc(Cl)c2)c(=O)n1-c1ccccc1)CCC3	-0.88	0.3
CCn1nc(C(=O)Nc2ccc(OC)cc2)c2ccccc2c1=O	nt	-0.55
Cc1cc(Nc2cc(Cl)cc(Cl)c2)nc(N)n1	-0.35	0.35
CCCCN(C(=O)C1CCC1)c1nnc(-c2ccncc2)s1	nt	1.2
c1ccc(-c2cn(-c3ccccc3)c3ncnc(NCc4ccc5c(c4)OCO5)c23)cc1	0.03	nt
O=C(CN1c2ccccc2-c2ccccc2S1(=O)=O)N1CCCCC1	nt	-1.2
CC(C)(C)C(=O)N1CCC(c2nc(C(c3ccccc3)c3ccccc3)no2)CC1	-0.11	nt
COc1ccc(S(=O)(=O)NCCC23CC4CC(CC(C4)C2)C3)cc1	0.53	0.35
CCOC(=O)c1c(C)nn(-c2ncccc2NC(=O)c2ccccc2C(=O)O)c1C	0.81	-0.55
Cc1cc(O)cc(=O)n1Cc1ccccc1	nt	0.15

structure	CapD inh	AID504770
CC(=O)N1c2ccc(S(=O)(=O)N3CC(=O)N(CCc4ccccc4)C(=O)C3)cc2CC1C (stereo unspecified)	0.17	-0.5
O=C1CCCC2=C1C(c1ccccn1)Nc1ccc3ncccc3c12 (stereo unspecified)	2.4	-0.55
COc1cc2c(cc1OC)C(COc1ccc(F)cc1)N(C(=S)Nc1cccc(C)c1C)CC2 (stereo unspecified)	0.17	nt
Clc1ccc(C2=NN=C(N3CCCC3)SC2)cc1	-1.5	-1.2
CC1C/C(=C/c2cccs2)C(=O)/C(=C/c2cccs2)C1 (stereo unspecified)	-1.7	0.9
O=C1CC(c2ccccc2)N(C(=O)CCCl)c2ccccc2N1 (stereo unspecified)	-0.015	nt
N#Cc1sc2c(c1OC(=O)c1cccs1)c(=O)n(-c1ccccc1)c(=S)n2-c1ccccc1	-0.8	0
CC1CCc2oc3ccc(NS(=O)(=O)c4ccc(Cl)cc4)cc3c2C1 (stereo unspecified)	0.045	nt
Cc1cnc(NC(=O)CSc2ccc(Cl)cc2)s1	nt	0.8
COc1ccc(S(=O)(=O)n2nnc3ccccc32)c2ccccc12	-0.15	nt

The closing three compounds of the section before come first, to join the parts:
structure	CapD inh	AID504770
CC1CCc2oc3ccc(NS(=O)(=O)c4ccc(Cl)cc4)cc3c2C1 (stereo unspecified)	0.045	nt
Cc1cnc(NC(=O)CSc2ccc(Cl)cc2)s1	nt	0.8
COc1ccc(S(=O)(=O)n2nnc3ccccc32)c2ccccc12	-0.15	nt
CCC1(C)OC(=O)N(c2ccc(C)cc2)C1(C)O (stereo unspecified)	-0.58	-0.8
O=C1c2ccccc2CC(=O)c2sccc21	-6.8*	nt
CC(C)c1ccc(OC(=O)C(C)N2C(=O)c3ccccc3C2=O)cc1 (stereo unspecified)	-0.23	-0.25
O=C1Nc2ccc(Br)cc2C1Cc1ccco1 (stereo unspecified)	-1.8	2
CCN(Cc1ccccc1)C(=O)CSc1nc2nc(C)c(Cc3ccccc3Cl)c(C)n2n1	0.15	nt
CC(C)N(C(=O)CSc1nncn1C)c1ccccc1	-1.2	1.1
CSc1nc2ccc(NC(=O)c3cccc([N+](=O)[O-])c3)cc2s1	1	nt
CCOC(=O)c1[nH]cnc1C(=O)Nc1ccccc1	-0.07	-0.4
COc1cccc(NC(=O)N2CCNCC2)c1	0.4	0.8
O=C1CS(=O)C(c2ccccc2)C(=O)N1c1ccc(Br)cc1 (stereo unspecified)	-0.68	nt

structure	CapD inh	AID504770
Cc1ccc(N2CC(C(=O)NCc3ccncc3)CC2=O)cc1C (stereo unspecified)	nt	2.2
CCOC(=O)CSC(=S)NCc1ccc(C)cc1	-0.27	nt
COc1cccc(CNCc2cccnc2)c1OCC(N)=O	nt	-0.4
CC(=O)NC(NCc1ccccc1)(C(F)(F)F)C(F)(F)F	-0.68	1
CC(=O)N1CCc2ccc(N(C3CCN(Cc4ccccc4)CC3)S(=O)(=O)c3ccc(C(C)(C)C)cc3)cc21	-0.22	nt
O=P1(C(Nc2ccc(Cl)cc2)c2ccc(O)cc2)OCCCO1 (stereo unspecified)	9.1	nt
CCCC(Cl)C(=O)OC1CCC2(C)C(=CCC3C2CCC2(C)C(C(C)CCCC(C)C)CCC32)C1 (stereo unspecified)	0.59	nt
Fc1ccc(CSc2nc(NCc3ccco3)c3ccccc3n2)cc1	-1.4	nt
CC(Cc1ccccc1)N=c1nc2c(ncn2C)c(N)n1C (stereo unspecified)	-0.38	-0.3
CCOC(=O)C1CCN(C(=O)c2sc3cc(F)ccc3c2Cl)CC1	0.82	0.4

structure	CapD inh	AID504770
COCC(=O)c1[nH]c2ccccc2c1C	-0.34	-0.25
CON(C)C(=O)CCC(=O)NC1CCN2CCCc3cccc1c32 (stereo unspecified)	0.14	nt
O=C(OCCN1CCNC1=S)N1CCC(C(O)(c2ccccc2)c2ccccc2)CC1	-0.08	nt
O=C(Nc1cccc(O)c1)c1cccc(S(=O)(=O)N2CCCCC2)c1	nt	0.1
COC(=O)c1ccc(Nc2ncnc3ccccc23)cc1	30	-0.7
N#Cc1c(Sc2ccccc2)nc2sccn12	-0.22	1.1
NS(=O)(=O)c1ccc(CNC(=O)c2c(F)cccc2F)cc1	0.26	nt
CCC1NCCc2sccc21 (stereo unspecified)	nt	-0.3
O=C(c1cccc(Br)c1)N1N=C(C(F)(F)F)CC1(O)C(F)(F)F (stereo unspecified)	-0.83	nt
CCN(CC)S(=O)(=O)c1ccc(C(=O)Nc2nc(-c3ccc4c(c3)OCO4)cs2)cc1	nt	-0.2

structure	CapD inh	AID504770
Cc1ccc(-c2c(C)n([O-])c(C)c(C)[n+]2=O)cc1	-0.97	2.1
CC(C)(C)c1nc(NC(=O)Nc2ccccc2)sc1Br	-0.03	nt
CN1CCN(c2c([N+](=O)[O-])c(=O)n(-c3ccccc3)c3ccccc23)CC1	-0.39	nt
Cc1ccc(C2(c3ccc(C)cc3)CC2C(=O)Nc2ccccc2)cc1 (stereo unspecified)	-0.2	nt
CN1C(=O)CC(=O)N(C)c2ccccc21	-0.17	1.5
O=C(/C=C/c1ccccc1)Nc1ccc(Oc2ccc(F)cc2F)nc1	0.28	0.9
NS(=O)(=O)c1ccc(CNC(=O)CCC2CCCCC2)cc1	nt	0.95
O=C(O)c1cc(=O)[nH]c2c(Cl)cc(Cl)cc12	2.5	0.25
Cn1c(=O)c2c(ncn2CC(=O)N/N=C/c2ccc(Br)s2)n(C)c1=O	-0.73	-0.5
S=C(NCc1ccco1)Nc1ccc2[nH]ccc2c1	-0.36	nt

structure	CapD inh	AID504770
CCCCN(C)C(=S)Nc1ccc2nc3n(c(=O)c2c1)CCCCC3	-0.98	nt
O=C(ON=C1CCN(S(=O)(=O)c2ccccc2)CC1)c1ccc(Cl)cc1	0.18	nt
COc1ccc(-c2nnc(SCc3cccc(C#N)c3)o2)cc1	-0.88	2.5
Cc1nc2ccccc2nc1CSCc1n[nH]c(=O)[nH]1	nt	2.5
CSc1ccccc1NC(=O)COC(=O)/C=C/c1ccco1	nt	0.65
COc1cccc(N2CCN(C(=O)CCC(=O)O)CC2)c1	-0.84	nt
CCN(c1ccccc1C(=O)O)S(=O)(=O)c1cccc2nsnc12	-0.66	-0.6
O=c1[nH]c(=S)n(CCc2ccccc2)c2c1CN(CCc1ccccc1)CN2	0.22	-0.25
NC1=NC(=O)C(CC(=O)Nc2ccc(C(F)(F)F)cc2)S1 (stereo unspecified)	-0.41	-0.05
CCc1nnc(NC(=O)c2nn(-c3ccccc3)ccc2=O)s1	0.12	0.2

structure	CapD inh	AID504770
O=C1Nc2ccccc2/C1=C\c1cccs1	-3.6	-1.1
COC(=O)[C@H]1[C@H]2C[C@H]3c4[nH]c5ccccc5c4CCN3C[C@@H]2CC[C@@H]1O	-0.02	nt
CCc1c(C)nc(SCCOc2ccc(OC)cc2)[nH]c1=O	-1	0.35
CCc1nnc(NC(=O)CSc2nc3c(cc2C#N)CCCC3)s1	0.59	nt
CC(=O)Nc1ccc(/C=C(\C#N)c2ccc(C)cc2)cc1	0.26	nt
Nc1ccc(S(=O)(=O)Nc2ccnn2-c2ccccc2)cc1	-0.45&0.33	-0.35
S=P1(N2CCOCC2)C2=C(CCC2)C2=C(CCC2)N1c1ccccc1 (stereo unspecified)	nt	-0.3
Cn1c(C(=O)NCc2ccccc2Cl)cc2oc3ccccc3c21	9.9	-0.05
CCN(CC)CCn1c2c(c(SCC(=O)Nc3nc(C)cs3)nc1=O)CCCC2	nt	-0.4
COc1ccc(-n2c(CCC(=O)O)nc3ccccc3c2=O)c(OC)c1	nt	-1

structure	CapD inh	AID504770
COC(=O)CCc1c(C)nn(-c2ccc(C(=O)N3CCN(c4nccnc4C#N)CC3)cc2)c1C	0.36	nt
COc1ccc(Nc2nc(N3CCCC3)nc3ccccc23)c(OC)c1	0.11	0.3
CCSc1ccc2nnc(-c3ccc(OC)c(OC)c3)n2n1	-0.38	-0.2
Cc1cccc(C(=O)Nc2ccc(O)cc2)c1	nt	-1.2
COc1ccc(NC(=O)CCCN2C(=O)/C(=C\c3ccco3)SC2=S)cc1	-0.32	0.5
Cc1c(NC(=O)C2CCN(S(=O)(=O)c3cnc[nH]3)CC2)c(=O)n(-c2ccccc2)n1C	-0.18	-0.05
O=C(C1CCN(c2nc3ccccc3n3cccc23)CC1)N1CCc2ccccc21	3.8	-0.35
CCN1/C(=C2\SC(=S)N(Cc3ccccc3)C2=O)Sc2ccccc21	-0.26	nt
COc1ccccc1CNC1CC(C)(C)n2cccc21 (stereo unspecified)	89	nt
O=C(O)c1nn(CC(=O)N2N=C(c3ccc(Cl)cc3)CC2c2ccco2)c(=O)c2ccccc12 (stereo unspecified)	nt	-0.1
COc1ccc(C2=NN(C(=O)CCC(=O)O)C(c3ccc(OC)c(OC)c3)C2)cc1OC (stereo unspecified)	1.2	nt

Not a hit list. Share with any hit: about 0.39%.
